Screening results from PubChem.
YopH inh: YopH (Yersinia) phosphatase inhibition. fluorescence Ex485/Em525. inhibition, %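 (about 10 µM by stock and volumes)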. 140,000 tested, 0.16% active;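 active means inhibition of 50% or more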;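 further: controls were vehicle for no effect and minimum signal wells for full effect; inactives centre near -20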
Mtb betalactam: beta-lactam sensitization of Mtb H37Rv; M. tuberculosis H37Rv growth with meropenem, percent inhibition; hits of this screen are not shown here; 330,000 tested, 0.27% active; AID 434955; inhibition, % at 25 µM;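 active means about 74% or more and at least 40 points above the plate without the antibiotic, then above 30% in a dose series; inconclusive means first-round hits that could not be retested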;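 further: growth measured after seven days incubation then overnight dye step; 0% = bacteria only wells and 100% = bacteria with antibiotic; twin plates without the antibiotic show which effects depend on it; some results filed as inactive read as strong as hits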
RecA intein inh: blocks M. tuberculosis RecA intein splicing; P9WHJ3; cell-free RecA intein splicing, fluorescence; inhibition, %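 (about 9 µM by stock and volumes)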; 290,000 tested, 0.75% active; AID 2221; in the data active means inhibition above about 30%; inconclusive means no clear call, values can overlap the other calls;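 further: 0% = vehicle wells and 100% = reference inhibitor control wells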
Target sequence (P9WHJ3 whole entry, looked up): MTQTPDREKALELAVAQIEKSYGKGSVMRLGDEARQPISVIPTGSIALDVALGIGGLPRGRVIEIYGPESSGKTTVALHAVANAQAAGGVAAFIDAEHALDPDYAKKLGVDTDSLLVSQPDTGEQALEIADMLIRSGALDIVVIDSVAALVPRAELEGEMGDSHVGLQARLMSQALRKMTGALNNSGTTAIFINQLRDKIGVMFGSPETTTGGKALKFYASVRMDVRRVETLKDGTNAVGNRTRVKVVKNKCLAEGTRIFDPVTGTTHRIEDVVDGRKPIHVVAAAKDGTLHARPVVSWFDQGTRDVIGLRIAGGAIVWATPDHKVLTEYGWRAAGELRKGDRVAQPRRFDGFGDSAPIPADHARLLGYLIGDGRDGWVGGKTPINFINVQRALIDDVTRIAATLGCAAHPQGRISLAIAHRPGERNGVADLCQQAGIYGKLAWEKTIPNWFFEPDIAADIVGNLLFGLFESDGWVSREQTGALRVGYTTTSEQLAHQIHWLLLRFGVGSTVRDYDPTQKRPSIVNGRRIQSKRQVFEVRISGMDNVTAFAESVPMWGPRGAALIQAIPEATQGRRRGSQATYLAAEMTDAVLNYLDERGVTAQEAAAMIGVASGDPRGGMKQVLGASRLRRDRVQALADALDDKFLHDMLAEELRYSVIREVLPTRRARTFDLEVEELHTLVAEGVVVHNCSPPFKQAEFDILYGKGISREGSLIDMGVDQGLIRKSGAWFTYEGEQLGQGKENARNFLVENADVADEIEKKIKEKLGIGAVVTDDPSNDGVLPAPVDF
Arbovirus inh: antivirals against arbovirus infection. arbovirus infection cell-based antiviral screen. inhibition, % at 10 µM. 200,000 tested, 0.37% active. AID 1251;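 active means inhibition from about 30%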;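 further: bluetongue infection of BSR cells; cell survival read as ATP light after 72 h; 0% = infected wells without compound and 100% = uninfected wells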
Mtb growth: M. tuberculosis H37Rv growth inhibitors, H37Rv strain (AID 1626). M. tuberculosis H37Rv growth inhibition; higher % means a stronger effect. inhibition, % at 10 µM; hits with a dose series show IC50 in µM. 220,000 tested, 0.95% active;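 active means confirmed in a dose series; inconclusive means inhibition above 80% but not taken into the dose series; inactive means below 80% or under 30% at every dose of the series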;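 further: bacteria incubated seven days before Alamar blue readout; 0% = bacteria only wells and 100% = bacteria with antibiotic wells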
Arbovirus inh repeat: also measured in Arbovirus inh; calls as there; inhibition, %; measured here: 10K subset replicate screen; many hits read low in the repeat;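 first of two repeat runs on a subset; 0% = infected and 100% = uninfected wells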
Starred values were filed as active, the others as inactive; u = inconclusive; x = not tested or not shown; & = joins results of further samples. This is a subset. The share of hits here may be higher or lower than overall.

SMILES | YopH inh | Mtb betalactam | RecA intein inh | Arbovirus inh | Mtb growth | others
CC(NC(=O)C1(S(=O)(=O)c2ccc(Cl)cc2)CC1)c1ccccc1 (configuration not stated) | 7 | -7 | 3.5 | -9 | 2%
COCCn1c(SCC(=O)Nc2cc(C(C)(C)C)nn2-c2ccccc2)nnc1-c1ccncc1 | -18 | 5 | 1.3 | 1 | -4%
Cc1nc(C)c(C(=O)Nc2ncc([N+](=O)[O-])s2)o1 | x | -2 | 13 | 3 | -1%
Cc1ccc(S(=O)(=O)/N=C(/Nc2ccccn2)c2ccc(Cl)cc2)cc1 | -35 | -2 | -0.4 | 2 | -1%
N#CC1=C(N)SC(N)=C(C#N)C1c1c(Cl)cccc1Cl | -10 | -5 | 12 | 3 | 1%
O=C(CSc1nnnn1-c1ccc(F)cc1)Nc1ccc(N2CCOCC2)c(Cl)c1 | -15 | 3 | 0.6 | 5 | -3%
COc1ccc(C=O)cc1Cn1ccnc1C | x | 1 | -2.1 | -5 | 0%
COc1ccc(NC(=O)NCCN2CCCCC2)cc1 | x | -4 | 2.5 | x | x
CC(=O)N1c2ccc(S(=O)(=O)N3CCC(C(=O)N4CC(C)CC(C)C4)CC3)cc2CC1C (configuration not stated) | x | -6 | 0.0 | x | x
COCCn1nnnc1C(CC(C)C)N1CCN(c2nc3ccccc3s2)CC1 (configuration not stated) | x | -4 | 0.5 | -4 | 0%
CC(C)OC(=O)C1CC=CCC1C(=O)Nc1ccc(Cl)cc1 (configuration not stated) | -10 | -7 | -2.5 | 2 | -9%
COc1ccccc1-c1nnc(NC(=O)c2ccc3c(c2)OCO3)s1 | x | 1 | 1.9 | -18 | 2%
O=C(C(Cc1ccccc1)n1cccc1)N1CCN(c2ccccc2)CC1 (configuration not stated) | -28 | -4 | -0.5 | -6 | 6%
COCCOC(=O)C1=C(C)N=C2SCCC(=O)N2C1c1cccc(Br)c1 (configuration not stated) | -14 | 2 | -5.7 | -1 | -2%
CC(C)n1nnnc1SCC(=O)Nc1ccc2c(c1)OCCO2 | x | -5 | -0.5 | x | 0%
CCCCC(=O)NC(=S)Nc1cccc(NC(=O)c2ccccc2)c1 | x | 7 | 3.6 | -4 | 6%
O=C(CN1CCSCC1)N1CCc2[nH]c3ccc(Br)cc3c2C1 | 3 | x | -1.7 | 0 | 6%
Cn1c(N2CCCC2)nc2c1c(=O)n(Cc1cccc(F)c1)c(=O)n2C | -47 | -3 | 1.9 | 2 | 3%
Cc1nc2c(C)cccn2c(=O)c1NC(=O)c1ccco1 | x | -10 | -0.1 | x | x
COc1ccc(-c2n[nH]c(=S)n2-c2ccc(Br)cc2)cc1OC | x | -6 | -0.8 | x | x
Cc1ccccc1S(=O)(=O)Cc1ccc(C(=O)NC2CCC(C)CC2)o1 (configuration not stated) | x | -4 | 4.9 | x | x
OCCNc1nc(N2CCCCC2)nc2ccccc12 | x | -7 | -1.1 | x | x
COc1cccc(NC(=O)COc2nc3ccccc3nc2C)c1 | -17 | 4 | -1.4 | -3 | 0%
COc1ccc(/C=N/NC(=O)CN2CCSCC2)cc1C | -23 | -2 | -0.1 | -2 | 3%
CC1CCN(C(=O)c2ccc3c(c2NCCO)C(=O)c2ccccc2C3=O)CC1 | 10 | 7 | 7.0 | -14 | 11%
Cc1cccc(C(=O)O/N=C2\CCS(=O)(=O)c3sccc32)c1 | -34 | 67 | 3.5 | 4 | 9%
C=CCNc1nc2c(c(=O)n(C)c(=O)n2C)n1CC | -43 | 3 | -0.4 | 3 | 5% | Arbovirus inh repeat=1
C(=C\c1ccccc1)/C=N/Nc1nc2ccccc2s1 | -27 | 98 | -3.2 | 11 | u
NC(=O)C1(N2CCCCC2)CCN(CC(=O)Nc2ccccc2Sc2ccccc2)CC1 | -13 | 12 | 1.7 | -3 | 2%
Cc1ccc(-c2cc(C(=O)O)c3cc(Br)ccc3n2)s1 | x | 1&-2 | -6.2&-1.6 | x | x
O=c1/c(=C\c2cc([N+](=O)[O-])cc([N+](=O)[O-])c2O)sc2nc3ccccc3n12 | x | 15 | x | 15 | 6%
COc1ccc(-c2nnc(SCC(=O)NC3CCCCC3)o2)cc1OC | -26 | -3 | 1.2 | -2 | -2% | Arbovirus inh repeat=1
O=C(CCCN1C(=O)c2ccccc2C1=O)Oc1ccc(Cl)cc1 | -26 | 1 | 13 | 2 | -12%
COCC1CCCN(C(=O)c2cc(COc3cncc(Cl)c3)on2)C1 (configuration not stated) | x | 3 | 0.8 | x | x
COc1ccc(NC(=O)c2ccco2)cc1NC(=O)COc1ccccc1[N+](=O)[O-] | x | 10 | -4.7 | x | x
Nc1nnn(CC(=O)N/N=C/c2cccc(Cl)c2)n1 | x | -4 | x | x | -8%
COc1cc(CN2CCC(C(=O)NCCC(C)C)CC2)ccc1OCc1ccccc1 | x | 0 | 0.4 | x | x
O=[N+]([O-])c1cccnc1NCCNc1ncc(C(F)(F)F)cc1Cl | -33 | 1 | -0.4 | 7 | 9%
C/C(=N\Nc1ccc(S(=O)(=O)Nc2ccc(Cl)cc2)cc1[N+](=O)[O-])c1ccc(N2CCOCC2)cc1 | 4 | 5 | -1.0 | 5 | -4%
O=C(CBr)c1ccc([N+](=O)[O-])c(CS(=O)(=O)c2ccc(Cl)cc2)c1 | x | -5 | 0.2 | x | x
Cc1nc(-c2ccccc2)sc1C1(C)CC(c2ccc(OC(F)(F)F)cc2)=NO1 (configuration not stated) | x | 0 | x | x | 1%
O=C1CCN(CCc2ccccc2)CCN1[C@H](CSc1ccccc1)c1ccccc1 | x | 28 | 2.2 | x | x
CCCCc1nnc(NC(=O)c2ccc(N3CCCC3=O)cc2)s1 | x | -12 | -2.9 | x | x
Cc1ccc(-c2[nH]n3c(=O)c4c(nc3c2C)CCCC4)cc1 | -14 | -2 | x | -6 | 6%
Cc1noc(C)c1S(=O)(=O)Nc1ccc(C(=O)NC2CCCCC2)cc1 | -1 | 0 | x | 5 | 10%
COC(=O)c1ccc(CN2CCCC(C(=O)c3ccccc3OC)C2)cc1 (configuration not stated) | x | 6 | 1.1 | x | x
CCOCc1nnc(NC(=O)c2ccc(OC)cc2)s1 | -21 | -5 | -1.1 | -5 | -1%
Cn1c(NC(=O)/C=C\c2ccccc2)cc(=O)n(C)c1=O | x | 5 | -0.3 | 12 | -8%
CN(C(=O)CSc1nnc(-c2ccco2)o1)C1CCCCC1 | -28 | 11 | 0.0 | -3 | -5%
CC(C(=O)O/N=C(\N)c1ccccn1)c1ccc([N+](=O)[O-])cc1 (configuration not stated) | x | 1 | 1.6 | x | x
CC(=O)c1ccc(OCc2ccc(Oc3c(Cl)cccc3[N+](=O)[O-])cc2)cc1 | -24 | u | 4.9 | 0 | 34%
O=C(CSc1nnc(-c2ccccc2)o1)c1ccc2c(c1)OCCO2 | -57 | 7 | -3.6 | 2 | 3%
O=C(NCC1COc2ccccc2O1)c1cccc(S(=O)(=O)NCc2ccccc2)c1 (configuration not stated) | x | 5 | 2.4 | x | x
CCN1C(=O)/C(=C2\SC(=S)N(CC3CCCO3)C2=O)c2ccccc21 (configuration not stated) | -31 | x | x | 10 | -1%
c1ccc2c(c1)Sc1ccccc1-n1cnnc1-2 | -18 | -4 | -2.0 | -2 | -9%
O=c1cnnc(N/N=C/c2ccccn2)[nH]1 | x | 7 | -7.5 | x | 8%
Cc1ccc(C(=O)COC(=O)CN2C(=O)C3C4C=CC(C4)C3C2=O)cc1[N+](=O)[O-] (configuration not stated) | x | 2 | 4.4 | x | x
NC(=O)C1CCN(C(=O)COc2ccc(Nc3ccccc3)cc2)CC1 | x | -1 | -0.6 | x | x
COc1ccccc1N1CCN(Cc2cc(C)c(C)cc2O)CC1 | -14 | -2 | 1.7 | 32* | x
O=C(c1ccco1)N1c2ccccc2Sc2ccccc21 | 22 | 83 | 1.1 | -14 | 6%

Additional records
SMILES | YopH inh | Mtb betalactam | RecA intein inh | Arbovirus inh | Mtb growth | others
Cc1ccsc1/C=N/n1c(C2CCCCC2)n[nH]c1=S | -23 | 6 | 0.0 | 1 | -2%
COc1ccc(S(=O)(=O)N(C)CC(=O)Nc2ccccc2SC)cc1 | -38 | 2 | 0.9 | 2 | 4%
O=C(CN1CCN(c2ccc([N+](=O)[O-])cc2)CC1)c1ccccc1 | x | -7 | 3.4 | x | x
C(#Cc1ccc2c(c1)COc1c3ccccc3nn1-2)c1ccccc1 | x | 5 | 1.0 | x | x
N#Cc1c(SCC(N)=O)nsc1SCc1ccccc1Cl | -25 | 98 | 2.9 | 3 | 12µM*
C=CCn1c(SCC(=O)N2CCOCC2)nc2sc3c(c2c1=O)CCCC3 | -12 | -4 | x | -9 | -11%
CC(=O)C1C(c2ccccc2Cl)NC(=O)NC1(O)C(F)(F)F (configuration not stated) | -32 | 0 | 0.2 | 6 | 1% | Arbovirus inh repeat=2
Cc1ccc(C(=O)N/C(=C/c2ccccc2)C(=O)NC(Cc2ccccc2)C(=O)O)cc1 (configuration not stated) | -2 | -9 | -0.3 | -2 | -16%
COc1ccccc1CNC(=O)c1ccc2c(=O)n3c(nc2c1)CCCCC3 | x | 8 | 4.0 | x | x
COc1cccc2cc(C(=O)C3=C(O)C(=O)N(CCN(C)C)C3c3ccc(F)cc3)oc12 (configuration not stated) | -2 | -4 | -0.2 | 3 | -7%
Cc1c(Cl)cccc1-n1c(SCC(=O)NCc2ccccc2Cl)nnc1-c1ccncc1 | -73 | 20 | 3.5 | -6 | -5%
O=c1[nH]c2ccc(S(=O)(=O)N3CCN(c4ccccc4)CC3)cc2[nH]c1=O | -32 | -6 | -0.5 | -2 | -7%
CC(C)(CO)NC(=O)CCCOc1ccc(Cl)cc1Cl | -17 | -8 | -3.0 | -8 | -2%
CCCC(=O)NC(Nc1c(C)n(C)n(-c2ccccc2)c1=O)C(Cl)(Cl)Cl (configuration not stated) | x | -1 | 7.8 | 2 | 5%
COc1c(C(=O)Nc2ccccc2N2CCOCC2)cc2ccccc2c1Br | x | -9 | 15 | x | x
CN(C(=O)c1ccc(Oc2ccc([N+](=O)[O-])cc2)cc1)C1CCCCC1 | x | 7 | 7.8 | x | x
O=C(OCc1cn(-c2ccc(Cl)c(Cl)c2)nn1)c1ccccc1 | 9 | 5 | -1.2 | -2 | 1%
O=c1[nH]c(=O)n(C2OC(CO)C(O)C2O)cc1Br (configuration not stated) | x | 3 | -1.8 | x | x
COc1cccc2c1C(=O)c1c(O)c3c(c(O)c1C2=O)C[C@@](O)(C(=O)CO)C[C@@H]3O[C@H]1C[C@H](N)[C@@H](O)[C@H](C)O1 | x | 94 | -6.9 | x | 15µM*
CCOc1cccc(N2C(=O)CC(NNC(=O)c3ccc(Br)o3)C2=O)c1 (configuration not stated) | x | 1 | -3.3 | x | -9%
O=C(COC(=O)COc1ccccc1[N+](=O)[O-])Nc1ccc(S(=O)(=O)N2CCCCC2)cc1 | -4 | 2 | -2.7 | -2 | -3%
Cc1cc(=O)oc2cc(OC(=O)c3ccccc3)ccc12 | x | -5 | -5.8 | -2 | 70% | Arbovirus inh repeat=1
O=C1O[C@@H]([C@H](O)CO)C(O)=C1O | x | 1 | -4.4 | x | -8%
O=C1/C(=C/c2cccnc2)SC(=S)N1C1CCS(=O)(=O)C1 (configuration not stated) | -30 | -1 | 8.1 | 3 | 7%

5 structures from above, ordered by molecular weight, smallest number first:
SMILES | YopH inh | Mtb betalactam | RecA intein inh | Arbovirus inh | Mtb growth | others
CC(C)n1nnnc1SCC(=O)Nc1ccc2c(c1)OCCO2 | x | -5 | -0.5 | x | 0%
NC(=O)C1CCN(C(=O)COc2ccc(Nc3ccccc3)cc2)CC1 | x | -1 | -0.6 | x | x
CCN1C(=O)/C(=C2\SC(=S)N(CC3CCCO3)C2=O)c2ccccc21 (configuration not stated) | -31 | x | x | 10 | -1%
Cc1ccccc1S(=O)(=O)Cc1ccc(C(=O)NC2CCC(C)CC2)o1 (configuration not stated) | x | -4 | 4.9 | x | x
O=C(CBr)c1ccc([N+](=O)[O-])c(CS(=O)(=O)c2ccc(Cl)cc2)c1 | x | -5 | 0.2 | x | x

The list continues.
SMILES | YopH inh | Mtb betalactam | RecA intein inh | Arbovirus inh | Mtb growth | others
CCC(=O)Nc1ccc(-c2nnc(SCC(=O)NCC3CCCO3)n2C)cc1 (configuration not stated) | -19 | 5 | -2.7 | 7 | -11%
COc1ccccc1NC(=O)CSc1nnc(CNC(=O)c2ccccc2F)o1 | x | -5 | -3.4 | x | x
O=c1c2cccnc2nc2n1CCCCC2 | x | -2 | 0.7 | 1 | 1%
Oc1cc2c(cc1CN1CCN(c3ccccc3)CC1)OCO2 | x | 5 | -6.2 | x | x
Cc1ccc2oc(=O)n(CC(=O)OC(C)C)c2c1 | -37 | -6 | -1.6 | -3 | -2%
Cc1ccc(C(=O)COC(=O)c2ccccc2NC(=O)c2ccccc2)cc1[N+](=O)[O-] | -39 | 5 | 1.2 | 8 | 4%
